gsp antag: qHTS for Antagonists of gsp, the Etiologic Mutation Responsible for Fibrous Dysplasia/McCune-Albright Syndrome: qHTS; Potency, µM (highest dose often 76.9 µM), inactives show at the top dose activity change, negative = inhibition, hits mostly inhibitors; 0.4% of 340,000 active; AID 624288, 2012; gsp-mutant cells, cAMP HTRF, 30 min; control for the full effect not named in the record; active = falling curve of any shape with a large fitted effect; inconclusive = falling curve, mostly with a smaller effect; inactive = flat or rising curve; cell line not stated here;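 also: intracellular cAMP measured with PDE inhibitor Ro 20-1724 present during compound exposure; potency is read from the fitted curve at half-maximal effect; % is scaled to controls: 0 for no effect and ±100 for the full control effect; nearly all actives have a fitted effect of over 65% in size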
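Cells, 2000/well, grown 16–24 h in DMEM 10% FBS with 0.5 mg/ml G418, then compounds plus […] (300 uM addition stock), 30 min at 37C. cAMP read by HTRF (cAMP-d2 and anti-cAMP antibody-K in lysis buffer) after 30 min RT.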
Sfp inh: qHTS Assay for Inhibitors of Bacillus subtilis Sfp phosphopantetheinyl transferase (PPTase). Biochemical Sfp PPTase activity, qHTS. Potency, µM, for inactives: max response, negative = inhibition, usual class: inhibitors. 3.5% of 310,000 active. AID 1490, 2009; active = well fitted inhibition curve with a large enough effect; inconclusive = small, poorly fitted or top-dose-only effect, or another doubt; inactive = no such curve, though single readings can be large or run the other way;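 also: the enzyme is Sfp with the accession as filed and its product quenches rhodamine fluorescence; potency is read from the fitted curve at half-maximal effect; 0% = enzyme reaction without inhibitor and -100% = no enzyme wells; top concentration of the series not given in the record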
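Fluorescence-quenching assay with 15 nM Sfp, 5 uM rhodamine-CoA and 12.5 uM BHQ-2-labelled ybbR peptide in pH 7.6 Hepes/MgCl2 buffer. Enzyme was pre-incubated with compound for 15 min at room temperature. Rate was taken from the 30-min fluorescence change (525/598 nm).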
Menin-MLL FL inh: qHTS Assay for Inhibitors Targeting the Menin-MLL Interaction in MLL Related Leukemias: Competition With Fluorescein Labeled MLL-derived Peptide | Fluorescence polarization, fluorescein-MLL peptide displacement from menin | FP activity change, % at 61.4 µM | 290,000 tested, under 10 active | AID 1766, 2009; inconclusive = falling polarisation curve, or a change in total fluorescence; inactive = total fluorescence flat and polarisation flat or rising; no compound was filed as active; the % refers to the polarisation; negative = inhibition;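 also: % of control where 0% means no effect; inhibitors lower the polarisation; unlabelled MLL peptide was the positive control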
gsp ag: qHTS for Agonist of gsp, the Etiologic Mutation Responsible for Fibrous Dysplasia/McCune-Albright Syndrome: qHTS | gsp mutant cells, cAMP HTRF, 30 min; control for the full effect not named in the record | Potency, µM (series often up to 76.9 µM), without a hit: at the highest dose activation (cAMP increase), usual class: activators | 0.13% of 340,000 active | AID 624287, 2012; active = well fitted activation curve with a large enough effect; inconclusive = small, poorly fitted or top-dose-only effect, or another doubt; inactive = no such curve, though single readings can be large or run the other way; cell line not stated here;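 also: phosphodiesterase inhibitor Ro 20-1724 added with compounds to block cAMP breakdown; potency is read from the fitted curve at half-maximal effect; nearly all actives have a fitted effect of over 60% in size; about a fifth of the inactives were tested at one dose only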
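Cells in DMEM/10% FBS with G418 were pretreated with compounds in DMSO plus […] (300 uM stock) for 30 min at 37C. cAMP was measured by HTRF (cAMP-d2 plus anti-cAMP antibody-K) after 30 min at room temperature.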
ClpP mod: qHTS Assay for Activators of ClpP | ATP-dependent Clp protease proteolytic subunit (Bacillus subtilis (strain 168)), P80244 | purified B. subtilis ClpP, FRET peptide cleavage, 20 min | Potency, µM (highest dose often 57.5 µM), inactives show at the top dose activity change, negative = active | 1.9% of 340,000 active | AID 651965, 2013; active = well fitted falling curve with a large enough effect; inconclusive = small, poorly fitted or top-dose-only effect; inactive = no such curve, though single readings can be large or run the other way; also: potency is read from the fitted curve at half-maximal effect; the source files actives as falling curves though it sought activators and does not explain the sign; nearly all actives have a fitted effect of over 65% in size; many hits overshoot -100%
Target sequence (P80244 whole entry, looked up): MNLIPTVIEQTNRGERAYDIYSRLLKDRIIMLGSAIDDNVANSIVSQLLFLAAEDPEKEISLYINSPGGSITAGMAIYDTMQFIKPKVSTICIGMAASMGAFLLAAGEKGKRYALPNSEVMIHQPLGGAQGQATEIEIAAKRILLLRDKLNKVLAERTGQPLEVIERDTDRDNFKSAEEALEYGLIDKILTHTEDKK
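FRET quenching reversal measured ClpP activation: 10 microg/mL B. subtilis ClpP at pH 8 with the FRET-FV decapeptide, read at 430 nm after 320 nm excitation. The 20-min minus 0-min signal was scaled between DMSO/no-enzyme wells and ADEP (5.8 microM final).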
D2 ag: Beta-Arrestin HTS for Positive Allosteric Modulators of the Human D2 Dopamine Receptor: Agonists | D(2) dopamine receptor (Homo sapiens), P14416 | DiscoveRx PathHunter D2 beta-arrestin, luminescence, 90 min; 100% = 57 uM dopamine signal | activation, % (test concentration not listed) | 0.084% of 360,000 active; in the data active = activation above about 40%; inconclusive = about 15% to 40%; inactive = below about 15%; also: compound concentration not given in the record; the text of the record calls up to 30% inactive
Target sequence (P14416 whole entry, looked up): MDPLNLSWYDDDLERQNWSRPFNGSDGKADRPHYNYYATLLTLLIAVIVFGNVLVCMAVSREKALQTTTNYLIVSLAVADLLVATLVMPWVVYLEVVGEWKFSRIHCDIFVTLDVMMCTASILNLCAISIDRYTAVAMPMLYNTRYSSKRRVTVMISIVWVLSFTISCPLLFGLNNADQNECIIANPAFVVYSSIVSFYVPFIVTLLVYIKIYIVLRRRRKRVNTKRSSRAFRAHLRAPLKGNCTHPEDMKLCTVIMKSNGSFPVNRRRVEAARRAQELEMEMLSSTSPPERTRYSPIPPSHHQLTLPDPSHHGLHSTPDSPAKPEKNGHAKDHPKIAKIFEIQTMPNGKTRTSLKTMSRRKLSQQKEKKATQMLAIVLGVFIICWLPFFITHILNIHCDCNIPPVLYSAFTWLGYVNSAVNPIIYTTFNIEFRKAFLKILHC
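Agonist mode: compounds alone added to overnight-plated D2 PathHunter cells for 90 min at 37 C, with 57 uM final dopamine (EC100) defining full response. Beta-arrestin recruitment detected by chemiluminescent reagent, read after 1 h at ambient temperature.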
PINK1 expr mod: A Quantitative High throughput Screen to Identify Chemical Modulators of PINK1 Expression. 0.2% of 410,000 active. Potency, µM (highest dose often 76.6 µM), for inactives: at the highest dose activation (PINK1 increase), hits mostly activators. PINK1 immunofluorescence, high-content cytometry, 24 h; active = well fitted activation curve with a large enough effect; inconclusive = small, poorly fitted or top-dose-only effect; inactive = flat fitted curve, though single readings scatter; cell line not stated here;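 also: potency is read from the fitted curve at half-maximal effect; % of control where 0% means no effect; nearly all actives have a fitted effect of over 65% in size; a mitochondrial uncoupler was the plate control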
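Cells are seeded, rested 12 hours, then given compound at five concentrations or DMSO for 24 hours. After fixation, blocking and antibody staining, PINK1 amount and mitochondrial localization are scored; CCCP serves as control.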
Active calls of the source: *; ? = inconclusive; / = not tested or not shown; & = joins results of further samples; [ ] = another dose, or the depositor's remark.

#	SMILES	gsp antag	Sfp inh	Menin-MLL FL inh	gsp ag	ClpP mod	D2 ag	PINK1 expr mod
1	CN(Cc1ccc(Cl)cc1)C(=O)c1ccc(S(=O)(=O)NCc2ccco2)cc1	-1.3%	/	/	22.0%	-1.1%	6.5	1.5%
2	CCCCN1C(=O)C(CC(=O)NCc2ccco2)CC(C(=O)N(C)C)=C1C (stereo unspecified)	/	/	/	11.6%	-0.7%	-1.3	1.9%
3	O=C(CCCO)CCCCCCCCC[C@H]1N[C@H](CO)[C@@H](O)[C@@H]1O	2.3%	6.2%	2.5	18.7%	-0.7%	-4.7	2.6%
4	CCOc1ccc(C(=O)Nc2cccc(-n3cnnn3)c2)cc1OCC	3.8%	12.1%	0.9	-30.1%[inhibitor]	-4.2%	-0.5	0.0%
5	CC1CC(CCN)(c2ccccc2)C(C)CN1C (stereo unspecified)	18.2%	15.9%	-2.5	4.5%[15.4 µM]	/	3.9	20.5%
6	Cc1cc2[nH]cnc2c([N+](=O)[O-])c1C	/	6.0%	-0.6	16.3%[15.4 µM]	/	-4.4	-0.5%
7	CC(=O)Nc1cc(-c2cccc(N)c2)cn2c(-c3ccc(C(C)=O)cc3)cnc12	/	/	/	/	-3.7%	4.0	6.9%
8	Cc1cccc(NC(=O)c2cccc(S(=O)(=O)Nc3ccccc3C(=O)O)c2)c1	1.6%	13.4%	0.8	10.4%	/	-1.5	0.2%
9	N#Cc1ccc(C23CC4(C2)[C@H](CN(Cc2ccc(C(F)(F)F)cc2)[C@@H]4c2ccccc2)C3c2ccccc2)cc1 (stereo partly specified)	0.6%	30.6%&21.7%	1.5&7.8	16.0%	0.0%	-2.8	12.1%
10	Cc1ccc(C)c(SCC(=O)NC(=O)NC2CCCC2)c1	-13.0%	/	/	-57.5%[inhibitor]	0.4%	-1.9	-0.7%
11	Cc1cc2occ(CC(=O)N(C)CC(=O)Nc3c(C)cccc3C)c2cc1C	-4.4%	/	/	-1.9%	-3.0%	0.4	1.6%
12	Cc1nc(C(=O)NNC(=O)c2ccc(Cl)cc2)cs1	-5.3%	-3.1%	-0.4	4.6%[15.4 µM]	/	1.3	0.1%
13	CCCn1c(SCC(=O)Nc2cccc(S(=O)(=O)NC3=NCCCCC3)c2)nc2ccccc2c1=O	-27.8%	20.4%	7.6	-7.8%[15.4 µM]	/	9.3	0.5%
14	Cc1cc(NC(=O)Cn2cnc3c2c(=O)n(C)c(=O)n3C)n(-c2ccccc2)n1	6.3%	1.4%	-2.7	?	-1.5%	-0.8	-1.3%
15	OC(c1ccc(F)cc1)c1nc(-c2ccccc2)cs1 (stereo unspecified)	/	/	/	/	-1.8%	5.7	9.2%
16	NC(=S)N(c1ccccc1)c1ccccc1	-0.9%	44.7µM*	0.2	6.7%[15.4 µM]	-24.2%	14.0	-0.9%
17	COc1ccc(C(c2nnnn2-c2c(C)cccc2C)N2CCN(C/C=C/c3ccccc3)CC2)cc1 (stereo unspecified)	/	/	/	/	-2.5%	-4.8	4.5%
18	CC1(CCc2ccccc2)NC(=O)N(CC(=O)Nc2c(F)cccc2F)C1=O (stereo unspecified)	19.3%	/	/	-21.5%	0.9%	2.7	0.2%
19	O=C(COC(=O)c1ccccc1NC(=O)c1ccco1)NCC1CCCCC1	-10.6%	6.6%	0.2	-33.7%	76.8%	2.2	-2.1%
20	COc1ccc(Cl)cc1NC(=O)/C=C/C(=O)O	13.0%	4.2%	6.4	?	/	-2.4	0.9%
21	Cc1cc(Cl)c(OCCOCCN2CCN(C)CC2)c(Br)c1	10.2%	?	0.6	-15.0%	/	2.3	1.5%
22	CCCCCNC(=O)c1cn(CC)c2cc(N3CCN(C)CC3)c(F)cc2c1=O	-8.9%	8.0%	-7.0	19.6%[15.4 µM]	-2.5%	-2.6	2.6%
23	CC[C@]12c3[nH]c4ccccc4c3CCN1C(=O)C(CC(=O)NCCN1CCOCC1)C[C@@H]2C(=O)N1CCN(C(=O)c2ccco2)CC1 (stereo partly specified)	13.4%	/	/	/	2.3%	0.3	1.6%
24	CN(C)C(=O)CSc1nnc(-c2ccco2)n1-c1ccccc1	4.2%	/	/	-16.0%	0.9%	2.7	2.2%
25	Cc1ccc(C(=O)Nc2nc3n(n2)C(c2ccccc2)CC(=O)N3)cc1 (stereo unspecified)	4.5%	12.1%	2.2	-5.9%[15.4 µM]	-11.7%	-2.6	2.0%

Screen by screen, quoted from above:
PINK1 expr mod for nos. 17–20: 4.5%, 0.2%, -2.1%, 0.9%

Complete entries from above.
`CCOc1ccc(C(=O)Nc2cccc(-n3cnnn3)c2)cc1OCC` as listed: gsp antag = 3.8%; Sfp inh = 12.1%; Menin-MLL FL inh = 0.9; gsp ag = -30.1%[inhibitor]; ClpP mod = -4.2%; D2 ag = -0.5; PINK1 expr mod = 0.0%
`Cc1cc(NC(=O)Cn2cnc3c2c(=O)n(C)c(=O)n3C)n(-c2ccccc2)n1` as listed: gsp antag = 6.3%; Sfp inh = 1.4%; Menin-MLL FL inh = -2.7; gsp ag = ?; ClpP mod = -1.5%; D2 ag = -0.8; PINK1 expr mod = -1.3%
`CCCn1c(SCC(=O)Nc2cccc(S(=O)(=O)NC3=NCCCCC3)c2)nc2ccccc2c1=O` as listed: gsp antag = -27.8%; Sfp inh = 20.4%; Menin-MLL FL inh = 7.6; gsp ag = -7.8%[15.4 µM]; ClpP mod = /; D2 ag = 9.3; PINK1 expr mod = 0.5%

Continued:
#	SMILES	gsp antag	Sfp inh	Menin-MLL FL inh	gsp ag	ClpP mod	D2 ag	PINK1 expr mod
26	O=C(NCc1cccnc1)c1cc(C2CCCN(S(=O)(=O)c3cccs3)C2)on1 (stereo unspecified)	/	/	/	/	2.0%	-4.4	1.0%
27	N#CCc1cccnc1Sc1ccc(Cl)cc1	5.4%	/	/	-6.9%	0.5%	-3.1	-0.4%
28	COC(=O)C(Cc1c[nH]c2ccccc12)NC(=O)C1CC1 (stereo unspecified)	-2.0%	-9.1%	-2.8	25.8%	/	1.8	1.0%
29	CC1(C)CC(=O)C2=C(C1)N(Cc1ccco1)C(=O)C2(NC(=O)C1CCCCC1)C(F)(F)F (stereo unspecified)	1.1%	25.1µM*	2.5	-21.8%	-2.8%	-4.3	0.8%[38.3 µM]
30	O=C(COC(=O)c1ccccn1)NC(=O)c1ccccc1	16.1%	/	/	-19.5%	-0.4%	-7.4	0.2%
31	Cc1nn(C)c(C)c1/C=N/NC(=O)c1csc2ccccc12	2.9%	13.6%	-3.3	-0.1%	-4.6%	1.9	-1.1%
32	FC(F)(F)c1cc(Cl)c2nnc(C(F)(F)Cl)n2c1	-1.2%	7.0%	-0.3	?	2.1%	-0.5	-0.6%
33	NC1=NC(=O)NC1(c1ccccc1)c1ccccc1	2.9%	/	/	-10.2%	-1.8%	-5.1	-2.9%
34	Cc1ccc(Cn2c(N3CCN(CCO)CC3)nc3c2c(=O)n(C)c(=O)n3C)cc1	-4.3%	19.5%	-1.1	-55.7%[inhibitor]	0.2%	-0.4	2.3%
35	Cc1ccc2[nH]c3c(=O)n(CCN4CCNCC4)cnc3c2c1	-2.2%	1.1%	-1.5	-2.5%	8.91µM*	1.6	-2.6%
36	O=C(Nc1nnc(-c2ccncc2)o1)c1ccc(Br)s1	-10.3%	-6.4%	0.6	-0.9%[15.4 µM]	-4.4%	5.2	0.3%
37	Cc1ccc(-c2nn(Cc3ccccc3)cc2/C=C/C(=O)O)cc1C	-17.7%	16.7%	3.7	26.3%	-1.0%	-2.6	2.3%
38	Cn1c(SCC(=O)Nc2cccnc2Cl)nc2ccccc21	7.4%	/	/	-7.8%	-0.6%	-0.6	-0.6%
39	O=C(/C=C1\SC(=O)NC1=O)Nc1ccc(F)cc1	-10.7%	-16.2%	-1.1	2.1%[15.4 µM]	-3.2%	-3.0	3.2%
40	CCNc1nc(OC)nc(Oc2ccc(=O)n(-c3ccccc3)n2)n1	9.1%	7.9%	10.0	10.7%[15.4 µM]	2.8%	-1.3	-0.1%
41	COc1ccc(CCNS(=O)(=O)c2cn(C)nc2C)cc1OC	4.6%	7.7%	/	-26.4%	-3.5%	-2.1	-0.6%
42	Cc1ccc(C)c(NC(=S)NNC(=O)c2csc(C(C)C)c2)c1	-17.3%	3.9%	3.7	-12.6%	4.3%	-7.2	-1.7%
43	COc1ccccc1/C=N/NC(=O)c1ccc(Cn2nc([N+](=O)[O-])cc2C)cc1	-10.9%	-0.6%	/	-48.2%[inhibitor]	0.7%	0.0	2.3%
44	Cc1ccc(SCCC(=O)Nc2cccnc2)cc1	-0.7%	24.1%	0.9	?	/	1.4	2.0%
45	COC(=O)c1cc(C(=O)NCC2CCCCC2)cc([N+](=O)[O-])c1	-9.5%	-14.1%	-1.9	-17.7%[15.4 µM]	/	-2.2	4.2%

Some of the entries so far, with values under each structure.
The line under a structure holds: gsp antag, Sfp inh, Menin-MLL FL inh, gsp ag, ClpP mod, D2 ag, PINK1 expr mod
[36] O=C(Nc1nnc(-c2ccncc2)o1)c1ccc(Br)s1
    -10.3%, -6.4%, 0.6, -0.9%[15.4 µM], -4.4%, 5.2, 0.3%
[40] CCNc1nc(OC)nc(Oc2ccc(=O)n(-c3ccccc3)n2)n1
    9.1%, 7.9%, 10.0, 10.7%[15.4 µM], 2.8%, -1.3, -0.1%

Source: PubChem (National Center for Advancing Translational Sciences (NCATS))
